RecA splice inh – blocks M. tuberculosis RecA intein splicing; P9WHJ3; cell-free RecA intein splicing, fluorescence; inhibition, %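 (about 9 µM by stock and volumes)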; actives 0.75% (n = 290,000); in the data active = inhibition above about 30%; inconclusive = no clear call, values can overlap the other calls;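 also: 0% = vehicle wells and 100% = reference inhibitor control wells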
Target sequence (P9WHJ3 whole entry, looked up, canonical isoform): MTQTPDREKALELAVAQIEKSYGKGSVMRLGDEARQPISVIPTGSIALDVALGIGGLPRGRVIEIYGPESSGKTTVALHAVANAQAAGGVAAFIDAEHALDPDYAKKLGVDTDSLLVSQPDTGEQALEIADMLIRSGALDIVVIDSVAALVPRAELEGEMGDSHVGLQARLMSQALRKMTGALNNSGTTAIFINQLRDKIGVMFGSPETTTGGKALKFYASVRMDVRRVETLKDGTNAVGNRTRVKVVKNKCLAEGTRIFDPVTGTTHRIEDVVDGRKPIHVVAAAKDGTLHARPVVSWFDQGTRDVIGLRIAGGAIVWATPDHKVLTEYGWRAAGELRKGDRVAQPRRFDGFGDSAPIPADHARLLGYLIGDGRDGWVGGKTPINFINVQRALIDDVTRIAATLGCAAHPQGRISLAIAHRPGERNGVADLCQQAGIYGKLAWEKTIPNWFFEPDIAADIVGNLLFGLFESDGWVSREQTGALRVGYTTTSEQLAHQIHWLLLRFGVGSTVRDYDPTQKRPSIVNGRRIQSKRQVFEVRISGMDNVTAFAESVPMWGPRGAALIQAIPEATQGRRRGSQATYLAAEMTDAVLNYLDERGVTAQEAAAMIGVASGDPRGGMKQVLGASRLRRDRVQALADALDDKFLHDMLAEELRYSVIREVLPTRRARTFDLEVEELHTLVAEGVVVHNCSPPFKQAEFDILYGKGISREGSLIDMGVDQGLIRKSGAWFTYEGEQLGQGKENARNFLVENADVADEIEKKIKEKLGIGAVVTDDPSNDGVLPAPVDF
Mtb growth – M. tuberculosis H37Rv growth inhibitors, H37Rv strain (AID 1626); M. tuberculosis H37Rv growth inhibition; higher % means a stronger effect; inhibition, % at 10 µM; hits with a dose series show IC50 in µM; actives 0.95% (n = 220,000);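 active = confirmed in a dose series; inconclusive = inhibition above 80% but not taken into the dose series; inactive = below 80% or under 30% at every dose of the series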;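 also: bacteria incubated seven days before Alamar blue readout; 0% = bacteria only wells and 100% = bacteria with antibiotic wells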
Mtb bLac sens – beta-lactam sensitization of Mtb H37Rv; M. tuberculosis H37Rv growth with meropenem, percent inhibition; hits of this screen are not shown here; inhibition, % at 25 µM; actives 0.27% (n = 330,000); AID 434955;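 active = about 74% or more and at least 40 points above the plate without the antibiotic, then above 30% in a dose series; inconclusive = first-round hits that could not be retested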;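 also: growth measured after seven days incubation then overnight dye step; 0% = bacteria only wells and 100% = bacteria with antibiotic; twin plates without the antibiotic show which effects depend on it; some results filed as inactive read as strong as hits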
YopH inh – YopH (Yersinia) phosphatase inhibition | fluorescence Ex485/Em525 | inhibition, %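 (about 10 µM by stock and volumes)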 | actives 0.16% (n = 140,000) | AID 898;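 active = inhibition of 50% or more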;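 also: controls were vehicle for no effect and minimum signal wells for full effect; inactives centre near -20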
Arbovirus inh – arbovirus infection inhibition. arbovirus infection cell-based antiviral screen. inhibition, % at 10 µM. actives 0.37% (n = 200,000);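 active = inhibition from about 30%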;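 also: bluetongue infection of BSR cells; cell survival read as ATP light after 72 h; 0% = infected wells without compound and 100% = uninfected wells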
Arbovirus inh repeat – second read-out of Arbovirus inh, no call of its own (marks repeat the call); inhibition, %; measured here: 10K subset replicate screen; many hits read low in the repeat;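 first of two repeat runs on a subset; 0% = infected and 100% = uninfected wells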
* = called active by the depositor; ? = inconclusive; · = not tested or not shown. Only part of the results is shown, so the mix of outcomes need not match the whole.

SMILES	RecA splice inh	Mtb growth	Mtb bLac sens	YopH inh	Arbovirus inh	others
CCC1(C)NC(=O)N(/N=C/c2cc(OC)c(O)c(OC)c2)C1=O (stereo not given)	-5.8	-4.3%	-13.1	·	-3.6
Cc1cc(C)cc(NC(=S)NCCc2ccc(S(N)(=O)=O)cc2)c1	4.2	-0.9%	0.6	-2.6	11.0
O=C(NC(c1ccccc1)c1ccccc1)c1ccc(Br)o1	-1.5	-4.3%	-3.6	-16.3	-7.7
Cc1ccccc1NC(=O)c1ccc(C)c(S(=O)(=O)N2CCN(C)CC2)c1	-0.4	·	5.5	·	·
COCCN1CCN(c2cc(-c3ccccc3)nc3cc(-c4cccc(F)c4)nn23)CC1	-1.4	?	99.3	-11.1	-21.7
CCCC(=O)NC(=S)Nc1c(C)cc(Br)cc1C	17.8	-0.4%	-5.3	-29.9	·
CC1(C)C(C=C(Cl)Cl)C1C(=O)N1CCN(Cc2ccccc2)CC1 (stereo not given)	4.5	3.8%	-5.9	·	-15.0
CC(=O)Nc1cccc(NC(=O)CSc2nnc(Cc3cccn3C)n2-c2ccc(F)cc2)c1	2.7	-2.9%	0.5	-45.5	-1.4
C/C(=N/NC(=O)c1cccc(N2CCCC2=O)c1)c1ccncc1	-1.3	-2.1%	-0.7	·	-1.4
O=C(O)[C@H](Cc1ccccc1)NC(=O)N1CCN(c2ccccc2)CC1	-1.3	-6.0%	-4.7	·	·
CC(=O)Nc1ccc(C(=O)CSc2nnnn2C2CCCC2)cc1	-1.9	-0.1%	-5.2	·	1.0
CC(C)C(=O)Nc1c(C(=O)c2ccc(F)cc2)oc2ccccc12	-12.8	8.2%	-4.8	-39.6	5.9	Arbovirus inh repeat=-4.5
COc1ccc2[nH]cc(CCNS(=O)(=O)Cc3ccccc3)c2c1	-1.1	-5.0%	-6.5	·	-3.6
COc1cccc(C(=O)Nc2nc3ccc(S(C)(=O)=O)cc3s2)c1	-1.3	-3.3%	2.2	·	-3.0
CCN1CCN(Cc2c(O)ccc3c2O/C(=C\C=C\c2ccccc2OC)C3=O)CC1	-8.5	0.3%	72.1	-32.1	12.8
COc1ccc(CCNC(=O)c2oc3ccc(OC)cc3c2C)cc1	-1.9	·	6.5	·	·
COc1ccc(N(CC(=O)NCc2cccs2)S(=O)(=O)c2c(C)nn(C)c2C)cc1	0.8	71.7%	1.3	-1.0	2.7	Arbovirus inh repeat=1.0
O=C(O)CCC(=O)N1CCc2cc(S(=O)(=O)NCc3cccs3)ccc21	1.0	2.7%	-18.8	-45.1	2.4
CCOc1ccc(C(C)=O)cc1COc1ccc(-n2cnnn2)cc1	·	3.8%	0.4	-31.7	-5.6
COC(=O)c1ccc(COC(=O)CNS(=O)(=O)c2ccc(C)cc2)cc1	-4.5	10.0%	8.0	·	-10.0

The final four compounds of the section before open the next one:
SMILES	RecA splice inh	Mtb growth	Mtb bLac sens	YopH inh	Arbovirus inh	others
COc1ccc(N(CC(=O)NCc2cccs2)S(=O)(=O)c2c(C)nn(C)c2C)cc1	0.8	71.7%	1.3	-1.0	2.7	Arbovirus inh repeat=1.0
O=C(O)CCC(=O)N1CCc2cc(S(=O)(=O)NCc3cccs3)ccc21	1.0	2.7%	-18.8	-45.1	2.4
CCOc1ccc(C(C)=O)cc1COc1ccc(-n2cnnn2)cc1	·	3.8%	0.4	-31.7	-5.6
COC(=O)c1ccc(COC(=O)CNS(=O)(=O)c2ccc(C)cc2)cc1	-4.5	10.0%	8.0	·	-10.0
COc1ccccc1N1CCN(C(c2cccs2)C(C)NC(=O)c2cccs2)CC1 (stereo not given)	8.6	-7.5%	-5.5	-21.9	10.4
O=C(CSc1ccc(Br)cc1)NCC(c1cccs1)N1CCOCC1 (stereo not given)	1.1	·	-22.1	·	·
O=C(Nc1cccnc1)c1ccc2snnc2c1	-1.9	6.2%	-10.2	-10.4	0.5
O=C(CCN1CCC(c2ccc(Cl)s2)=N1)c1ccc(Cl)s1	1.1	3.2%	60.0	·	·
COc1ccc(NC(=S)N2CCN(C/C=C/c3ccccc3)CC2)c(OC)c1	-3.0	7.5%	0.1	·	-5.0
Cc1ccccc1S(=O)(=O)/N=C(/c1ccccc1)N(C)C	-0.4	·	1.1	·	·
O=C(CCNC(=O)c1ccccc1)NCCc1ccc(Cl)cc1	1.1	·	-0.3	·	·
CC(=O)N1CCc2c(sc(NC(=O)CN3C(=O)c4ccccc4C3=O)c2C(N)=O)C1	4.6	·	-2.4	·	1.8
CCc1cc(-c2n[nH]c(=S)n2-c2ccccc2C)cs1	0.8	·	-7.2	-22.6	9.3
O=C(CCc1ccccc1)Nc1nccs1	1.1	·	-15.0	·	·
COc1ccc(Cc2nnc(NC(=O)C(C)(C)C)s2)cc1	-0.4	-4.5%	-3.2	·	5.6
CC(=O)Nc1sc2c(c1C(c1ccccc1Cl)N1CCN(CCO)CC1)CCCC2 (stereo not given)	4.0	7.3%	2.6	·	-11.8
O=C(Nn1c(-c2ccncc2)nc2ccccc2c1=O)c1ccccc1Br	0.3	6.0%	2.2	·	6.0
CCN(CC)S(=O)(=O)c1ccc(C(=O)NC2CN3CCC2CC3)cc1 (stereo not given)	-1.8	·	-9.4	·	·
CC(NC1CCN(Cc2ccccc2)CC1)c1ccc(F)cc1 (stereo not given)	0.4	·	2.4	·	·
Cn1c(Cn2c(=O)sc3ccccc32)nnc1SCC(=O)N1CCOCC1	-0.2	-9.5%	1.5	-19.1	4.6	Arbovirus inh repeat=0.6
CN1C(=O)N2CN(C3CCCCC3)CN3C(=O)N(C)C1C23 (stereo not given)	-1.4	-1.1%	35.3	4.5	3.6
CCOC(=O)c1c(-c2cccs2)csc1NC(=O)CN1CCOCC1	1.7	6.2%	5.7	-17.1	-1.0
C=CCn1c(SCCC(=O)O)nc2c1c(=O)n(C)c(=O)n2C	0.8	0.9%	2.5	-0.4	5.3
CCOC(=O)c1ccc(S(=O)(=O)N2CCN(CC(O)COc3cccc(C(C)=O)c3)CC2)cc1 (stereo not given)	-0.7	·	1.0	·	·
COc1ccc(S(=O)(=O)N2CCOC2CNC(=O)C(=O)NCC(C)C)cc1OC (stereo not given)	0.4	·	-2.1	·	·
Nc1ncnc2c1C1(CCCCC1)Cc1ccccc1-2	2.7	8.6%	-0.3	-14.0	10.7
COc1cc(C(=O)NCc2ccncc2)cc(Br)c1OCc1ccccc1	7.0	·	43.4	·	·
CCCN1CCN(c2ccc([N+](=O)[O-])cc2C#N)CC1	-0.2	0.1%	-4.1	·	8.6
Cc1ccccc1OCCOC(=O)c1c(-c2ccccc2)noc1C	1.6	·	28.8	·	·
O=C(/C=C/c1ccccc1)NCCSCc1ccccc1	2.8	0.0%	-0.3	-15.2	2.4
COc1ccc(NC(=S)NCC2CCCO2)c(C)c1 (stereo not given)	1.6	5.1%	-4.0	-44.7	2.5
CC1=C(CC/C(C)=N/NC(N)=S)C(C)(C)CCC1	2.2	1.5%	59.2	-24.8	-26.9
Cn1c(/C=N/n2cnnc2)nc2ccccc21	0.4	-1.0%	10.0	-115.6	6.8	Arbovirus inh repeat=-0.1
O=C1C(=O)N(CCN2CCOCC2)C(c2ccncc2)/C1=C(/O)c1ccc2c(c1)OCO2 (stereo not given)	-1.9	3.4%	12.1	-30.5	-2.3
COC(=O)/C=C1/S/C(=N/N=C/c2ccc(N(C)C)cc2)NC1=O	-0.7	-15.3%	?	-18.1	8.4
CC(NC(=S)NC(=O)c1ccccc1Br)c1ccccc1 (stereo not given)	8.5	·	7.1	·	·
COc1ccc(NC(=O)c2cc(-c3ccccc3)oc2C)cc1	-1.5	3.3%	3.8	-31.9	2.6
CN(CC(=O)Nc1cccc(F)c1)C(=O)c1ccc2c(c1)OCCO2	-2.9	·	-14.2	·	·
COc1ccccc1Nc1nc2nonc2[nH]c1=O	-0.3	-0.8%	0.5	·	29.0
CC(C)(C)C(=O)c1cn(Cc2ccccc2)c2ccccc12	-1.0	-2.8%	7.2	·	7.9
COc1ccc(C(=O)N/N=C(\N)c2cc3ccccc3oc2=O)cc1	-0.6	·	3.3	·	·
N/C(=N\OC(=O)COc1ccc(Cl)cc1Br)c1cccnc1	3.9	-2.6%	5.0	·	-7.3
CC(=O)c1cccc(NC(=O)CN2CCc3cc4c(cc3C2C)OCCCO4)c1 (stereo not given)	2.1	·	1.4	·	·
Cn1c(CC(=O)Nc2ccccc2F)nnc1SCC(=O)Nc1nccs1	-1.6	·	-2.9	·	·
C/C(=N\N1CCN(c2ccc(Cl)cc2)CC1)c1cccs1	0.7	-1.0%	2.6	-15.8	-0.2
CCCCOc1ccc(/C=C/C(=O)OCC(=O)NC(=O)NCC(C)C)cc1OCC	-2.2	-1.4%	-1.8	-33.9	8.0
Cc1nc([N+](=O)[O-])cn1CC(=O)Nc1ccc2c(c1)OCO2	-2.8	5.2%	5.1	·	-4.6
COCCN1C2=C(COC(C)(C)C2)C(=S)NC1c1ccccc1 (stereo not given)	·	4.3%	0.4	·	·
O=S(=O)(N[C@H]1C[C@@H](NS(=O)(=O)OCC(Cl)(Cl)Cl)C2CCCCC21)OCC(Cl)(Cl)Cl (stereo not given in full)	31.6*	·	-1.8	·	·
CN(CC(=O)Nc1ccc(F)cc1)CC(=O)Nc1ccc(Cl)c(S(=O)(=O)N2CCOCC2)c1	2.5	-2.5%	4.0	·	·
Cn1ccnc1C(O)c1ccccc1 (stereo not given)	-4.4	6.7%	0.3	·	6.6
O=c1oc2ccc(Br)cc2cc1-c1nc2ccccc2o1	-6.8	2µM*	99.3	-46.7	9.3
CCOC(=O)C1CCCN(C(=O)C(=O)Nc2ccc3nc4n(c(=O)c3c2)CCCCC4)C1 (stereo not given)	-0.1	·	-0.9	·	·
COc1cc(C2CC(=O)Oc3c(C(CCN4CCCC(C)C4)c4ccc(N(C)C)cc4)c(OC)cc(OC)c32)cc(OC)c1OC (stereo not given)	0.6	-1.2%	-2.4	·	·
S=C(NCCc1cccc(Cl)c1)NC1CCCCC1	6.7	·	4.7	·	·
CCc1ccc(CNc2ccc3c(c2)ncn3CC)cc1	-0.5	·	1.6	·	·
CCOC(=O)N1CCN(c2nc3c(C)cccn3c(=O)c2C=O)CC1	-2.5	·	-4.6	·	·
COC(=O)c1ccc2c(=O)n(-c3ccccc3)c(=S)[nH]c2c1	1.4	2.2%	-0.1	·	3.5
CC(C)C(=O)N1CCC(c2nc(-c3ccc(S(=O)(=O)N4CCCC4)cc3)no2)CC1	0.1	-5.1%	-1.1	-37.4	-0.7
O=C(NCCc1ccccc1)C1CCCN1S(=O)(=O)c1ccccc1 (stereo not given)	-2.3	6.9%	-7.5	·	-3.2
O=C(CSc1nnc(NC(=O)C2CC(=O)N(c3ccc(F)cc3)C2)s1)NC1CCCC1 (stereo not given)	0.5	·	-2.0	·	·
CCC(C)n1c(=N)c(C#N)cc2c(=O)n3ccccc3nc21 (stereo not given)	-354.7	-8.2%	-6.0	-14.4	2.1
CCN(CC)c1ccc(NC(=O)COc2ccc(N(C)S(=O)(=O)c3cccs3)cc2)cc1	-4.7	5.5%	-8.2	·	-4.6
CC(=O)c1cc(-c2ccccc2)n(CC(=O)N2CCN(C3CCCC3)CC2)c1C	·	-7.6%	1.6	-15.9	4.8
Next records follow:
SMILES	RecA splice inh	Mtb growth	Mtb bLac sens	YopH inh	Arbovirus inh	others
CC(C)=CCC(C)(C)CNC(=O)NC1CCCCC1	1.0	4.4%	2.6	14.0	4.2
N#Cc1ccccc1Sc1ccccc1C(=O)OCC(=O)N1CCN(C(=O)c2ccco2)CC1	-0.5	0.4%	-17.4	-47.2	1.2
CC(C)[C@@H]1NC(=O)c2cc([N+](=O)[O-])cc(I)c2NCCCC[C@@H](C(=O)NC(CC(=O)O)C(N)=O)NC(=O)[C@H](CO)NC1=O (stereo not given in full)	·	4.6%	·	-20.3	9.2
Cc1sc2ncnc(SCC(=O)NC(=O)c3cccn3C)c2c1C	22.3	-4.6%	-5.7	·	-4.4
COCCCNC(=O)CCc1c(C)nc2c(c(C)nn2-c2ccc(C)cc2)c1C	1.0	·	0.5	·	·
CN1CCC(N(C)C(=O)c2ccccc2F)CC1	-1.8	·	-10.5	·	·
CCCCCn1c(=O)c(Cc2ccccc2)c(O)c2ccccc21	-1.3	-0.2%	0.9	-42.9	1.2
O=C1c2cc([N+](=O)[O-])ccc2-c2ncccc21	46.3*	-1.1%	-4.6	·	·
CCS(=O)(=O)c1cc([N+](=O)[O-])c(Sc2ccccc2N)s1	18.4	-9.8%	-1.9	·	·

Sorted by molecular weight (largest number first): part of the list above.
SMILES	RecA splice inh	Mtb growth	Mtb bLac sens	YopH inh	Arbovirus inh	others
O=C(NC(c1ccccc1)c1ccccc1)c1ccc(Br)o1	-1.5	-4.3%	-3.6	-16.3	-7.7
CCCC(=O)NC(=S)Nc1c(C)cc(Br)cc1C	17.8	-0.4%	-5.3	-29.9	·
CN1CCC(N(C)C(=O)c2ccccc2F)CC1	-1.8	·	-10.5	·	·
